# Screening data from PubChem BioAssay.
# TRPML1 inh = qHTS for Inhibitors of the Human Mucolipin Transient Receptor Potential 1 (TRPML1); activity change, negative = inhibition, % (no concentration beside the values); TRPML1-inducible cells, Ca2+ dye fluorescence, FDSS; active compounds read low; inhibition of EC80 agonist-evoked calcium signal; Mucolipin-1 (Homo sapiens), Q9GZU1; hit rate 0.02% among 390,000; in the data active means activity change below about -50%; inconclusive means about -30% to -50%; inactive means above about -30%;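 further: stimulus is agonist 54-4 at its EC80 concentration; on the % scale 0 is the no-effect control and ±100 the full control effect; compound concentration not given in the record; the text of the record puts the active cut at -80%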
# Target sequence (Q9GZU1 whole entry, looked up): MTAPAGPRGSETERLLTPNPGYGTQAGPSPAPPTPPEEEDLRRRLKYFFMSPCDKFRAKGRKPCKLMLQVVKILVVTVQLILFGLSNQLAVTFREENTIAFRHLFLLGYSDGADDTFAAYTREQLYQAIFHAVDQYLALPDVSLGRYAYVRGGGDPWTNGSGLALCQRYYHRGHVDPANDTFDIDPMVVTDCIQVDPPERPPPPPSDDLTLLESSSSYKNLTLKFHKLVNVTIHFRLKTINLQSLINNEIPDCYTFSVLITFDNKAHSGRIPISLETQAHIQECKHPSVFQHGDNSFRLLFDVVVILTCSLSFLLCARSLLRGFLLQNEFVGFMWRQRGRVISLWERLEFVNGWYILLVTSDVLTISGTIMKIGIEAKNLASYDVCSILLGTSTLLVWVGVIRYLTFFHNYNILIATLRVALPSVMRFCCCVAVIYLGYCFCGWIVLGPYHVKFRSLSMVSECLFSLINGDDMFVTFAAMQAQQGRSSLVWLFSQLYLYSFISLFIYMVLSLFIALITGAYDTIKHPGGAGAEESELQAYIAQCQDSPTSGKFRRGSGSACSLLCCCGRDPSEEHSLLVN
#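 Calcium fluorescence in TRPML1-DL cells induced overnight with Tet: a 110 s read after compound pin addition, then a 110 s antagonist read after challenge with 54-4 at 4 uM final (EC80).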
# Six1-Eya2 inh = qHTS Assay for Inhibitors of the Six1/Eya2 Interaction | Homeobox protein SIX1 (Homo sapiens) + Protein phosphatase EYA2 (Homo sapiens), … | AlphaScreen GST-Six1/His-Eya2 binding, biochemical; active compounds read low; control for the full effect not named in the record | activity change, % (concentration not given with the values) | hit rate 0.56% among 360,000; in the data active = activity change below about -65%; inconclusive = about -30% to -65%; inactive = above about -30%; further: on the % scale 0 is the no-effect control and ±100 the full control effect
#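 GST-Six1 + His-Eya2 (5X stock: 250/500 nM); Tris pH 8.0, 300 mM NaCl, 0.05% BSA, 0.02% Tween 20; GSH donor/Ni acceptor beads; 1 h 37 °C dark; AlphaScreen readout.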
# CtBP-E1A blk = qHTS Assay for Inhibitors of the CtBP/E1A Interaction | CtBP / adenovirus E1A interaction (AlphaScreen) | AID 651724, 2012 | hit rate 0.49% among 340,000 | activity change, % (test concentration not listed) | AlphaScreen GST-E1A/His-CtBP binding, 1536-well; active compounds read low; control for the full effect not named in the record; in the data active means activity change below about -65%; inconclusive means about -30% to -65%; inactive means above about -30%; further: on the % scale 0 is the no-effect control and ±100 the full control effect
#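 Steps: dispense buffer (Tris pH 8.0, NaCl 300 mM, TCEP 1 mM, BSA, Tween 20); add 5X protein mix (GST-E1A, His-CtBP, 125 nM each); pin 23 nL compound; 2 h at 37 °C, dark; add 5X beads (50 ug/mL); 1 h; read.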
# TRPML1 ag = qHTS for Agonists of the Human Mucolipin Transient Receptor Potential 1 (TRPML1). hit rate 0.12% among 410,000. activation, % (concentration not given with the values). TRPML1-expressing cells, Ca2+ dye fluorescence, FDSS; host cell line not named in the record; reference of the full effect not given here; in the data active = activation above about 50%; inconclusive = about 30% to 50%; inactive = below about 30%; further: 0% is about no effect; the text of the record puts the active cut at 80%
#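 Kinetic FDSS Ca2+ read in Tet-induced TRPML1-DL cells (ABD Ca8 dye plus quencher, 45-90 min RT loading): baseline, then compound, then 110 s agonist window; EC80 agonist 54-4 at 4uM final added afterwards for a 110 s antagonist window.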
# TRPV1 PAM = HTS Assay for Compounds that Act as Potentiators of the Vanilloid Receptor 1 | Transient receptor potential cation channel subfamily V member 1 (Homo sapiens), Q8NER1 | TRPV1-expressing cells, Fluo-8 calcium influx, capsaicin EC20 potentiation; host cell line not named in the record; control for the full effect not named in the record | potentiation, % at 8.33 µM | hit rate 0.02% among 320,000; active means potentiation above 80%; inconclusive means 30% to 80%; inactive means below 30%; further: 0% is about no effect
#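 TRPV1-expressing cells were cultured overnight at 35.5C and loaded with Fluo-8 calcium dye for 40 to 90 min at room temperature. After a 10 s baseline, compound was added and calcium influx was read kinetically for 3 min (ex 480/em 520 nm).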
# D2 potentiator = Beta-Arrestin HTS for Positive Allosteric Modulators of the Human D2 Dopamine Receptor: Potentiators; D(2) dopamine receptor (Homo sapiens), P14416; DiscoveRx D2 beta-arrestin cells, luminescence, 90 min; 100% = 57 uM dopamine signal; potentiation, % (test concentration not listed); hit rate 0.23% among 360,000; AID 624464, 2012; active = potentiation of 50% or more; inconclusive = 30% to 50%; inactive = 30% or less;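 further: compound concentration not given in the record; tested on top of an EC20 dose of dopamine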
# Target sequence (P14416 whole entry, looked up): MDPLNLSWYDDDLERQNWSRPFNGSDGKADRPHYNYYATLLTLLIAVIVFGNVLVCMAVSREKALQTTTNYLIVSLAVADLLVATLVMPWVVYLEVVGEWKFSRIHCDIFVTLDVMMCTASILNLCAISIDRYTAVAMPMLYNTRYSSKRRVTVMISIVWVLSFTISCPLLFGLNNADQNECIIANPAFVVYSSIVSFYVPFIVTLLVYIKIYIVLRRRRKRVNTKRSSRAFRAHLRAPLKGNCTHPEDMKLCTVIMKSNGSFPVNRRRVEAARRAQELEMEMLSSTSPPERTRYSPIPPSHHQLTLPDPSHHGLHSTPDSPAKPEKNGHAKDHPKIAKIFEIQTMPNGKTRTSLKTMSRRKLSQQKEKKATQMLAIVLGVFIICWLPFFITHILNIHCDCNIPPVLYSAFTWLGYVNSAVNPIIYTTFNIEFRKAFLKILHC
#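 D2 cells co-treated with compound plus 50 nM dopamine (EC20) for 90 min at 37 deg C to detect potentiation. Beta-arrestin recruitment was read as enzyme-fragment luminescence after 1 h at ambient temperature. Full response was set by 57 uM dopamine.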
# * = called active by the depositor; ? = inconclusive; . = no result given; & = joins results of further samples.
SMILES,TRPML1 inh,Six1-Eya2 inh,CtBP-E1A blk,TRPML1 ag,TRPV1 PAM,D2 potentiator
CC(=O)Oc1ccc(C(c2ccc(OC(C)=O)cc2)c2ccccn2)cc1,-12,-5,0,-0.8,2,-1
COc1cc(CNn2cn[nH]c2=S)cc(Cl)c1OCc1ccccc1,2,-1,-10,2.8,-6,-4
COc1cccc(NC(=O)C2CCN(C(=O)[C@@H]3Cc4ccccc4CN3C(=O)OC(C)(C)C)CC2)c1,1,4,-4,-0.1,-13,-30
CN(C)/C=N/c1nc2ccc3c(c2s1)CCCC3,4,-2,-8,0.2,-12,-4
Cc1ccccc1-n1c(=O)/c(=C\c2ccco2)s/c1=C(/C#N)C(=O)Nc1ccccc1,29,-2,5,-0.4,-12,-12
CCn1c(SCC(=O)Nc2cc(C)on2)nc2c(c1=O)SCC2,-3,-1,-13,1.6,-3,3
Cn1c(-c2ccc(C=O)s2)nc2c3ccccc3c3ccccc3c21,2,12,-10,10,16,?
Cc1ccc[n+](/C(=C\C(=C=[N-])C#N)C(=O)c2ccc(Cl)cc2)c1,-16,0,4,0.5,-4,-4
O=C(NCc1cccs1)c1ccc(N2CCCCC2)nc1,15,2,7,-0.2,11,-5
CCOc1ccccc1NC(=O)CN1CCN(C(=O)C2CCCO2)CC1 (stereo not given),15,-5,7,0.2,-5,-7
COc1ccccc1CNc1ncc(-c2ccc(F)cc2)n1C,18,-16,-1,0.1,1,-4
C(=N\n1c2ccccc2c2ccccc21)/c1ccccc1,70,1,9,0.8,3,9
O=C(O)/C=C/C(=O)Nc1ccc(C2(c3ccc(NC(=O)/C=C/C(=O)O)cc3)c3ccccc3-c3ccccc32)cc1,.,-1,.,.,?,3
O=C(Cn1c2[n+](c3ccc(C(F)(F)F)cc31)CCCCC2)Nc1ccccc1,-5,3,9,0.0,-1,-30
Cc1ccccc1OCCN1C(=O)C(=O)c2cccc(C)c21,11,-1,-3,1.5,-1,-66
CCCCc1nc2cc(C(=O)N3CCN(c4cnccn4)CC3)ccc2o1,-9,1,3,-1.4,-15,-4
Cc1nc(C(F)(F)F)c(C(=O)N=CN(C)C)s1,1,6,-2,0.2,27,-8
CSc1ncccc1C(=O)OCC(=O)Nc1ccc(S(=O)(=O)N2CCCC2)cc1,-4,-5,-2,-0.2,?,-8
CC(=O)Nc1ccc(Nc2cc(C)nc3c(-c4ccccc4)cnn23)cc1,-19,16,18,2.6,-1,-8
COc1ccc(-n2ncc(C(C)NS(=O)(=O)c3cc(F)ccc3C)c2C)cc1 (stereo not given),18,0,12,0.6,3,15
O=c1cc(-c2ccccc2)[nH]n1-c1ccc([N+](=O)[O-])cc1,5,-5,17,-0.3,-8,-2
O=C(Cc1ccccc1F)NCC(c1ccco1)N1CCCCC1 (stereo not given),-13,10,3,-0.8,-2,-7
COCCNc1nc(SCc2ccccc2)nc2sc3c(c12)CCC3,24,0,2,1.4,14,-8
C[C@@H]1CN([C@@H](C)CO)C(=O)c2cc(NS(C)(=O)=O)ccc2O[C@@H]1CN(C)S(=O)(=O)c1ccccc1,-9,17,23,-0.8,.,.
Cc1ccc(/C=C2\SC(=S)N(c3c(C)n(C)n(-c4ccccc4)c3=O)C2=O)cc1,29,-5,7,-0.4,3,-9

# Compounds listed so far that have two or more sulfur atoms, in the order listed:
SMILES,TRPML1 inh,Six1-Eya2 inh,CtBP-E1A blk,TRPML1 ag,TRPV1 PAM,D2 potentiator
CCn1c(SCC(=O)Nc2cc(C)on2)nc2c(c1=O)SCC2,-3,-1,-13,1.6,-3,3
CSc1ncccc1C(=O)OCC(=O)Nc1ccc(S(=O)(=O)N2CCCC2)cc1,-4,-5,-2,-0.2,?,-8
COCCNc1nc(SCc2ccccc2)nc2sc3c(c12)CCC3,24,0,2,1.4,14,-8
C[C@@H]1CN([C@@H](C)CO)C(=O)c2cc(NS(C)(=O)=O)ccc2O[C@@H]1CN(C)S(=O)(=O)c1ccccc1,-9,17,23,-0.8,.,.
Cc1ccc(/C=C2\SC(=S)N(c3c(C)n(C)n(-c4ccccc4)c3=O)C2=O)cc1,29,-5,7,-0.4,3,-9

# Next section:
SMILES,TRPML1 inh,Six1-Eya2 inh,CtBP-E1A blk,TRPML1 ag,TRPV1 PAM,D2 potentiator
COc1ccc(C(=O)NNC(=O)C(=O)NC2CCCCC2)cc1,-2,-1,2,-0.5,-2,-4
CCN(CC)S(=O)(=O)c1ccc(C(=O)NC(C)(C)C)cc1,-9,9,-19,0.0,-8,4
NC(=O)CN1C(=O)NC2(CCOc3ccccc32)C1=O (stereo not given),25,9,6,0.9,7,-4
Cc1ccc(NC(=O)CSc2nnc(Cn3cnc4ccccc43)o2)c(C)c1,-6,1,-5,-0.6,3,-10
Cc1ccc(C)c(NC(=O)CN(C)S(=O)(=O)c2cccc3cccnc23)c1,19&2,-12,.,0.9&-0.7,?,-14
CCC1CCCCN1CCCNC(=O)c1c(O)nc2ccccn2c1=O (stereo not given),0&28,1,4,-0.7&-0.4,1,4
COC(=O)c1ccc(CNc2ccc(C(C)=O)cc2)cc1,.,-1,1,-0.5,.,2
COc1ccc(-c2nc3ccccn3c2NC2CCCCC2)cc1SC1CCCCC1,16,-16,-13,0.5,?,-3
O=C(NC1CCC1)C1CCC(=O)N(Cc2ccccc2F)C1 (stereo not given),3,3,.,3.8,3,-6
Cc1ccc(C(=O)NCCN(C)C)c(C)c1,37,-2,1,0.3,-1,-20
CN(C)C(CNC(=O)c1ccccc1OCc1ccc(Cl)cc1)c1ccco1 (stereo not given),13,-4,-13,1.4,3,-2
CSc1nncc(/C(C)=N/O)n1,5,3,2,0.2,15,0
Cc1cccc(NC(=O)c2cc(S(=O)(=O)c3ccccc3)ccc2Cl)c1,15,1,7,0.8,-2,-2
COc1ccc(CNC(=O)CN2CCC(C(=O)c3ccc(OC)cc3)CC2)cc1,0,-2,7,-0.4,-2,-11
CCOC(=O)C1=NN(c2ccc(Cl)cc2)C(=O)C1,23,-19,-25,2.8,-2,-18
Cc1cc(C)c2c(CC(=O)NC3CCS(=O)(=O)C3)coc2c1 (stereo not given),7,-1,.,-0.5,8,-6
Cc1cc(-c2nnc(SCc3cccnc3)o2)no1,5,0,9,-0.8,-13,-3
COc1cccc(C2CC(=O)Nc3n[nH]c(-c4ccccc4)c32)c1OC (stereo not given),-16,-4,-1,0.8,-6,7
COc1ccc(/C=C2/SC(=S)N(CCCC(=O)Nc3ccccc3C(=O)O)C2=O)cc1,-19,-1,-1,1.7,7,0
O=C(CN1C(=O)C2CC=CCC2C1=O)Nc1ccc(S(=O)(=O)Nc2ncccn2)cc1 (stereo not given),2,6,.,0.0,-2,-11
COC(=O)c1ccc(COc2ccc(Cl)cc2)o1,-5,16,.,1.9,5,-6
CCOC(=O)N1CC=C2C(C#N)=C(N)C(C#N)(C#N)[C@H](c3cccs3)[C@H]2C1,-8,-17,-1,0.3,0,-24
Cc1ccc(C)c(-c2nc3cc(N)ccc3o2)c1,-12,23,0,0.8,-36,-17
COc1ccc(CN2C(=NC(=O)c3ccccc3)SC3CS(=O)(=O)CC32)cc1 (stereo not given),6,1,-16,1.0,19,-10
O=C(C[n+]1cccc(CNC(=O)c2ccc(OC(F)F)cc2)c1)Nc1cc(C(F)(F)F)ccc1Cl,26,1,2,3.1,1,-39

# Four structures out of the list, ordered by number of heavy atoms, low to high:
SMILES,TRPML1 inh,Six1-Eya2 inh,CtBP-E1A blk,TRPML1 ag,TRPV1 PAM,D2 potentiator
COc1ccccc1CNc1ncc(-c2ccc(F)cc2)n1C,18,-16,-1,0.1,1,-4
CCOc1ccccc1NC(=O)CN1CCN(C(=O)C2CCCO2)CC1 (stereo not given),15,-5,7,0.2,-5,-7
CC(=O)Nc1ccc(Nc2cc(C)nc3c(-c4ccccc4)cnn23)cc1,-19,16,18,2.6,-1,-8
Cc1ccc(NC(=O)CSc2nnc(Cn3cnc4ccccc43)o2)c(C)c1,-6,1,-5,-0.6,3,-10

# (listing goes on)
SMILES,TRPML1 inh,Six1-Eya2 inh,CtBP-E1A blk,TRPML1 ag,TRPV1 PAM,D2 potentiator
CCOC(=O)c1cc(-c2csc(COc3ccc(Cl)cc3)n2)on1,6,9,11,0.7,6,-7
Cc1ccc(NC(=O)Cn2nnc(C(=O)Nc3ccc(F)c(Cl)c3)c2N)cc1,5,6,-5,0.2,-5,-7
Cc1ccc(-c2csc(NC(=O)c3c(C)noc3C)n2)cc1,-23,-5,-8,2.0,12,-5
O=c1ccn2c(n1)SC(c1ccccc1)C2 (stereo not given),0,0,0,-0.1,.,-2
O=C(COC(=O)c1cccc(N2C(=O)C3CC=CCC3C2=O)c1)c1ccccc1 (stereo not given),24,-4,-3,-0.8,14,15
COc1ccc(/C=C/c2nnc(NC(=O)COc3ccc(C)cc3)s2)cc1,-2,3,3,0.3,10,-13
COc1ccc(N2CCN(C(=O)COC(=O)CNC(=O)c3ccccc3)CC2)cc1,62,4,5,-0.5,-8,0
CCOC(=O)N1CCN(C(=O)c2cccc(N3C(=O)NC4CC3(C)Oc3ccccc34)c2)CC1 (stereo not given),-12,0,1,-0.7,21,-5
CC(Nc1cc(N2CCN(S(=O)(=O)N(C)C)CC2)ccc1[N+](=O)[O-])c1ccccc1 (stereo not given),-2,-14,0,-0.2,-3,0
CCOc1cc(C)c(C(C)C)cc1S(=O)(=O)N1CC(C)OC(C)C1 (stereo not given),6,3,0,1.8,-9,-19
CCC[C@@H](CN1CCC[C@H]1CN1C(N)=NC[C@H]1CC(C)C)N1C[C@@H]([C@H](C)CC)N(CCc2ccc(Cl)c(Cl)c2)C1=N,-16,-2,-22,-0.2,.,.
O=C(O)/C(=C\c1ccccc1Cl)c1ccc(S(=O)(=O)N2CCCCC2)s1,13,-6,.,0.0,2,-4
Cc1ccccc1NC1=CC(=O)CC(C)(C)C1,9,0,6,-0.2,4,-11
Cc1ccc(C(c2nnnn2C2CCCC2)N2c3ccccc3CC2C)cc1 (stereo not given),7,-16,-27,2.0,14,-9
CC(=O)Nc1cc(-c2cccc(C(=O)NCCO)c2)cn2c(-c3ccc(F)cc3)cnc12,.,-4,-8,-0.7,.,-4
CCCc1ccc2ccc3ccccc3c2n1,.,22,30,-0.6,.,0
CCOc1ccc(NC(=O)c2nn(C)c(C(=O)Nc3ccc(OCC)cc3)c2[N+](=O)[O-])cc1,28,-14,-3,1.2,-8,-6
Cc1noc(C)c1C(=O)NCCc1ccc(S(N)(=O)=O)cc1,-4,-2,-2,0.9,-5,-8
O=[N+]([O-])c1cccc(-c2csc(CS(=O)(=O)Cc3ccco3)n2)c1,3,-10,-3,4.6,-13,-3
COCc1cc(C)nc(NC2CCCCC2)c1C#N,-2,11,19,1.0,-21,2
C=CC[C@H](CC(=O)N(CCO)Cc1ccccc1)C(=O)NCCOC(=O)[C@@H](CC=C)Cc1ccc(F)cc1,-5,-4,-10,-0.5,.,-11
O=S(=O)(c1cc(F)ccc1F)N1CCN2CCCC2C1 (stereo not given),.,3,.,.,5,2
